Mtb H37Rv – Confirmatory growth inhibition assay against Mycobacterium tuberculosis H37Rv, potency (AID 1949); most inactive calls were filed without a number and no value below 0 was filed; one-dose inhibition, % at 10 µg/mL; IC50 in µg/mL for titrated hits; hit rate 1.6% among 100,000;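 active = confirmed in a dose series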;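 note: bacteria grown 7 days with compound before Alamar blue readout; 0% = untreated bacteria and 100% = reference antibiotic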
The depositor's hits bear a star. These rows are one share of the data, so the mix of outcomes need not match the whole.

CC(C)(Oc1ccc(Cl)cc1)c1nc(-c2ccncc2)no1 was read as Mtb H37Rv inactive.
For O=C(Nc1ccc(F)cc1)N1CCN(c2ccc(F)cc2)CC1 the results were Mtb H37Rv inactive.
CC1(C)C(=O)Nc2ccccc2N1C(=O)c1ccc([N+](=O)[O-])cc1 was read as Mtb H37Rv inactive.
For COC(=O)CNC(=O)c1cn(-c2ccccc2)nc1-c1ccc(OC)cc1 the results were Mtb H37Rv inactive.
COC(=O)CN(C)C(=O)NCC12CC3CC(CC(C3)C1)C2 was read as Mtb H37Rv inactive.
CCOC(=O)CNC(=O)c1c(C)c(-c2cccc(Cl)c2)nc2ccccc12 was read as Mtb H37Rv inactive.
Screening CCN1CCN(c2ccc([N+](=O)[O-])c(Sc3nc4ccccc4[nH]3)c2)CC1 returned Mtb H37Rv 2%.
`Cc1ccccc1OCC(=O)Nc1ccc(Br)c(Cl)c1` gave Mtb H37Rv inactive.
Cc1ccc(S(=O)(=O)Nc2ccccc2Sc2ccccc2)cc1 was read as Mtb H37Rv 2%.
`Cc1cccc(N2CCN(C(=S)c3ccc([N+](=O)[O-])cc3)CC2)c1` gave Mtb H37Rv inactive.
`OCCNCc1c(OCc2ccccc2)ccc2ccccc12` gave Mtb H37Rv 5%.
`Cc1ccc(Cn2c(=O)oc3ccc(C)cc32)cc1` gave Mtb H37Rv 3%.
CCc1ccc(OCC(=O)Nc2nc(-c3ccccc3)c(C)s2)cc1 was read as Mtb H37Rv 5%.
Screening O=c1[nH]c(-c2ccc3nsnc3c2)nc2ccccc12 returned Mtb H37Rv inactive.
COC(=O)c1c(NC(=O)C(C)N2C(=O)c3ccccc3C2=O)sc2c1C(C(=O)OC)CC2 (stereo not given) was read as Mtb H37Rv inactive.
`COc1ccccc1CNC(=O)CN(c1cccc([N+](=O)[O-])c1)S(C)(=O)=O` gave Mtb H37Rv inactive.
O=C(Cc1cccc2ccccc12)Nc1ccc(S(=O)(=O)N2CCCC2)cc1 was read as Mtb H37Rv inactive.
For CC(=O)OCc1cc(Cl)ccc1O the results were Mtb H37Rv inactive.
For Nc1sc(Cc2cccc(C(F)(F)F)c2)c[n+]1CC(=O)c1ccc(Cl)cc1 the results were Mtb H37Rv inactive.
COc1ccc(Nc2nc(N)nc(CSc3nnnn3-c3ccccc3)n2)cc1 was read as Mtb H37Rv inactive.
Screening Cc1ccc(-c2cc(C(F)(F)F)c3c(N)c(C(N)=O)sc3n2)o1 returned Mtb H37Rv 1%.
For Nc1ccccc1C(=O)c1nnc(Nc2ccccc2)s1 the results were Mtb H37Rv inactive.
CCOC(=O)CSc1nnc2n3ncnc3c3c4c(sc3n12)CC(C)CC4 (stereo not given) was read as Mtb H37Rv 20%.
O=C(CSc1nc2ccccc2o1)N1CCc2ccccc2C1 was read as Mtb H37Rv inactive.
`O=C(Nc1cccnc1)c1cc(-c2ccccc2)on1` gave Mtb H37Rv inactive.
For CS(=O)(=O)N(CC(=O)N1CCN(c2ccccc2)CC1)c1ccc(Cl)c(C(F)(F)F)c1 the results were Mtb H37Rv inactive.
Screening Cc1ccc(C(=O)NC(=S)Nc2ccc(C(=O)O)c(Cl)c2)cc1Cl returned Mtb H37Rv inactive.
`O=C(NC(=S)Nc1cccc2cc(O)ccc12)c1ccccc1F` gave Mtb H37Rv inactive.
Screening CCOC(=O)C(C)Sc1nc2ccccc2c(=O)n1CC (stereo not given) returned Mtb H37Rv inactive.
O=C(Nc1ccccc1Oc1ccccc1)c1ccco1 was read as Mtb H37Rv inactive.
`CC1(C(=O)O)CCC(C(=O)Nc2ccc(OC(F)(F)F)cc2)C1(C)C` (stereo not given) gave Mtb H37Rv inactive.
For C=CCn1c(-c2ccc(OC)c(OC)c2)n[nH]c1=S the results were Mtb H37Rv 1%.
Screening COc1c(C)cc(Br)cc1C(=O)NCc1ccco1 returned Mtb H37Rv 2%.
For CCOc1ccc(C(C)NC(=O)Nc2cccc([N+](=O)[O-])c2)cc1 (stereo not given) the results were Mtb H37Rv inactive.
For COC(=O)c1ccccc1NC(=O)c1cc2n(n1)C(C(F)F)CC(C(F)F)N2 (stereo not given) the results were Mtb H37Rv inactive.
`CCn1cc(C(=O)O)c(=O)c2cnc(N3CCN(C(=S)Nc4cccc5ccccc45)CC3)nc21` gave Mtb H37Rv inactive.
For COC(=O)c1ccccc1NC(=O)COc1ccc(-c2ccccc2)cc1 the results were Mtb H37Rv inactive.
For COc1ccc(Cl)cc1-c1nc(-c2ccc(NC(=O)c3cccs3)cc2)no1 the results were Mtb H37Rv inactive.
O=C(CSc1nnc(-c2ccccc2O)n1Cc1ccccc1)NC12CC3CC(CC(C3)C1)C2 was read as Mtb H37Rv 1%.
Screening CC(C)(C)NC(=O)CSc1nnc(-c2ccccc2)o1 returned Mtb H37Rv inactive.

Three entries picked at random from the list so far, as already listed:
Screening CCN1CCN(c2ccc([N+](=O)[O-])c(Sc3nc4ccccc4[nH]3)c2)CC1 returned Mtb H37Rv 2%.
O=C(CSc1nnc(-c2ccccc2O)n1Cc1ccccc1)NC12CC3CC(CC(C3)C1)C2 was read as Mtb H37Rv 1%.
COC(=O)CN(C)C(=O)NCC12CC3CC(CC(C3)C1)C2 was read as Mtb H37Rv inactive.

Next part.
Screening Cc1ccccc1NC(=S)NC(=O)COc1ccccc1 returned Mtb H37Rv inactive.
CCOCC(=O)Nc1ccc(Br)cc1F was read as Mtb H37Rv inactive.
For O=C(CSc1nc(-c2ccccc2)cc(=O)[nH]1)Nc1ccc(Cl)cc1 the results were Mtb H37Rv inactive.
COC(=O)c1ccc(C2NC(=O)CCC2[N+](=O)[O-])cc1 (stereo not given) was read as Mtb H37Rv inactive.
For Cc1ccc(S(=O)(=O)Nc2ccccn2)c(C)c1C the results were Mtb H37Rv inactive.
For Cc1ccc(C)c(C(=O)O/N=C(\N)c2ccc(Br)cc2)c1 the results were Mtb H37Rv inactive.
For O=C(Nc1ccccc1OC(F)F)c1sc2cc(Cl)ccc2c1Cl the results were Mtb H37Rv 5%.
Screening COCCNCCCCOc1ccc(C(C)(C)C)cc1C returned Mtb H37Rv 15%.
COc1ccc2c(Cl)c(C(=O)Nc3ccc(F)cc3)sc2c1Cl was read as Mtb H37Rv inactive.
Screening O=C(NC(=S)Nc1ccc(Cl)cc1C(F)(F)F)c1ccccc1Br returned Mtb H37Rv inactive.
For CCOC(=O)C1CCCN(S(=O)(=O)c2ccc(C(C)(C)C)cc2)C1 (stereo not given) the results were Mtb H37Rv inactive.
Screening O=S(=O)(Nc1cccc(Br)c1)c1cccs1 returned Mtb H37Rv 3%.
For Cc1cc(OCC(=O)N2CCN(C)CC2)ccc1Br the results were Mtb H37Rv inactive.
Screening CCOC(=O)c1ccccc1NC(=O)c1ccoc1C returned Mtb H37Rv inactive.
`CC(=O)OC(C(=O)N1CCN(c2ccc(F)cc2)CC1)c1ccccc1` (stereo not given) gave Mtb H37Rv inactive.
CC(C)Oc1ccc(Cn2c(-c3ccco3)n[nH]c2=S)cc1 was read as Mtb H37Rv inactive.
Screening COc1ccccc1C1C2=C(CC(C)(C)CC2=O)Nc2nnnn21 (stereo not given) returned Mtb H37Rv 1%.
CCCOc1c(Cl)cc(C(=O)NCc2ccc(S(N)(=O)=O)cc2)cc1Cl was read as Mtb H37Rv 4%.
`CCOC(=O)c1ccc(NC(=O)Cc2cccs2)cc1` gave Mtb H37Rv 49%.
For COc1ccccc1N1CCN(C(=S)Nc2cccc(F)c2)CC1 the results were Mtb H37Rv inactive.
For CCOC(=O)C1=C(Cn2cnc3ccccc32)NC(=O)NC1c1cc(C)ccc1C (stereo not given) the results were Mtb H37Rv 3%.
`CCOc1cc(C(=O)Nc2nc(C)c(C(=O)N(C)C)s2)cc(OCC)c1OCC` gave Mtb H37Rv inactive.
COc1ccc(Cl)cc1CNCc1cccs1 was read as Mtb H37Rv inactive.
For CCc1ccc(NC(=O)CC2NCCNC2=O)cc1 (stereo not given) the results were Mtb H37Rv inactive.
`CCCCOc1ccc(C(=O)NC23CC4CC(CC(C4)C2)C3)cc1` gave Mtb H37Rv 4.3µg/mL*.
`CC12CCC(C(=O)NCc3ccc4c(c3)OCO4)(c3nc4ccccc4nc31)C2(C)C` (stereo not given) gave Mtb H37Rv inactive.
Screening CCCn1c(SCC(=O)Nc2ccc(Br)cc2)nnc1-c1ccccc1 returned Mtb H37Rv inactive.
For CCN(CC)CC#CCN1c2ccccc2Sc2ccc(Cl)cc21 the results were Mtb H37Rv inactive.
O=C(COc1ccc(Cl)cc1Cl)NC(=S)Nc1ccccc1N1CCCC1 was read as Mtb H37Rv inactive.
CCOC(=O)c1cnc2ccc(C)cc2c1Nc1ccc(O)cc1 was read as Mtb H37Rv 3%.

The last seven records of the section above open the next one.
For CCc1ccc(NC(=O)CC2NCCNC2=O)cc1 (stereo not given) the results were Mtb H37Rv inactive.
`CCCCOc1ccc(C(=O)NC23CC4CC(CC(C4)C2)C3)cc1` gave Mtb H37Rv 4.3µg/mL*.
`CC12CCC(C(=O)NCc3ccc4c(c3)OCO4)(c3nc4ccccc4nc31)C2(C)C` (stereo not given) gave Mtb H37Rv inactive.
Screening CCCn1c(SCC(=O)Nc2ccc(Br)cc2)nnc1-c1ccccc1 returned Mtb H37Rv inactive.
For CCN(CC)CC#CCN1c2ccccc2Sc2ccc(Cl)cc21 the results were Mtb H37Rv inactive.
O=C(COc1ccc(Cl)cc1Cl)NC(=S)Nc1ccccc1N1CCCC1 was read as Mtb H37Rv inactive.
CCOC(=O)c1cnc2ccc(C)cc2c1Nc1ccc(O)cc1 was read as Mtb H37Rv 3%.
Cn1nc(OCCOc2ccccc2)ccc1=O was read as Mtb H37Rv inactive.
CC1CCN(CC(=O)NC2CCCCC2)CC1 was read as Mtb H37Rv inactive.
For COc1cc(C=O)ccc1OC(=O)C1CC1 the results were Mtb H37Rv inactive.
Screening CC(=O)c1cccc(NS(=O)(=O)c2cc(C(=O)O)ccc2Br)c1 returned Mtb H37Rv inactive.
CC(C)(C)c1ccc(OCC(=O)NCc2ccncc2)c(Br)c1 was read as Mtb H37Rv inactive.
Screening CC(=O)N1CCc2cc(NS(=O)(=O)c3ccc4ccccc4c3)ccc21 returned Mtb H37Rv inactive.
`N#Cc1cc2c(nc1SCC(=O)Nc1ccccc1C(F)(F)F)CCC2` gave Mtb H37Rv 4%.
Cc1nn(CC(=O)Nc2ccc3c(c2)nc(CN2CCCCC2)n3C)c(=O)c2ccccc12 was read as Mtb H37Rv inactive.
Cc1cc(Cl)ccc1OC(C)C(=O)Nc1ccc2c(c1)OCO2 (stereo not given) was read as Mtb H37Rv 30%.
For Cc1cc(C(F)F)n2nc(C(=O)Nc3ccc(C#N)cc3)nc2n1 the results were Mtb H37Rv inactive.
`COc1ccccc1NC(=O)c1sc2ncn(Cc3cccc4ccccc34)c(=O)c2c1C` gave Mtb H37Rv 5%.
Screening COc1cc(Cl)c(C)cc1NC(=O)c1ccccc1F returned Mtb H37Rv 11%.
`O=C(c1cc(Br)ccc1Cl)N1CCN(c2ccccn2)CC1` gave Mtb H37Rv 2%.
`C=CCn1c(SCC(=O)NCc2ccccc2)nc2sc(C)cc2c1=O` gave Mtb H37Rv 1%.
Screening CCOc1c(I)cc(I)cc1C=C(C#N)C#N returned Mtb H37Rv inactive.
Cc1cc(C)c(C)c(S(=O)(=O)N2CCN(Cc3ccccc3)CC2)c1C was read as Mtb H37Rv inactive.
`O=C1NC(=O)C(CCc2ccncc2)(CCc2ccncc2)C(=O)N1` gave Mtb H37Rv inactive.
Screening C=C(C)CSc1nc2nc(C)cc(C)n2n1 returned Mtb H37Rv inactive.
CCn1c(SCC(=O)Nc2cc(Cl)ccc2OC)nnc1-c1ccc(Br)cc1 was read as Mtb H37Rv inactive.
`CCC(=O)NC(=S)Nc1ccc(NC(=S)NC(=O)c2ccc(Cl)cc2)cc1` gave Mtb H37Rv inactive.
Screening CC1(C)Cc2nc3sc4c(NC5CCCCC5)ncnc4c3cc2CO1 returned Mtb H37Rv inactive.
O=[N+]([O-])c1ccc(S(=O)(=O)N2CCN(c3ccc(Cl)c(Cl)c3)CC2)cc1 was read as Mtb H37Rv 1%.
COc1ccc(-c2c(C(F)(F)F)oc3cc(OC(=O)c4ccccc4F)ccc3c2=O)cc1OC was read as Mtb H37Rv inactive.
CC(SCc1ccccc1)C(=O)Nc1cccc(Cl)c1 (stereo not given) was read as Mtb H37Rv inactive.
CCOC(=O)NCC(C)(C)CNC(=O)OCC was read as Mtb H37Rv inactive.
CCCN1CCC(NC(=S)NCCOC)CC1 was read as Mtb H37Rv inactive.
For CCn1ncc(Br)c1C(=O)Nc1sc2c(c1C(N)=O)CCC2 the results were Mtb H37Rv 1%.
For CC(C)(C)C(=O)Nc1ccc(F)c(F)c1 the results were Mtb H37Rv inactive.
Cc1cc(Br)ccc1OCC(=O)NCc1ccccc1Cl was read as Mtb H37Rv inactive.
Screening COc1ccc(-c2nc(C)c(C(C)=O)n2O)cc1OC returned Mtb H37Rv 0%.
For CC1CC(=O)c2cnc(N3CCCCC3)nc2C1 (stereo not given) the results were Mtb H37Rv inactive.
For CCOC(=O)c1c(-c2ccccc2)oc2ccc(OCC(=O)O)cc12 the results were Mtb H37Rv inactive.
O=C(O)C1CC(c2c(F)cccc2Cl)=NO1 (stereo not given) was read as Mtb H37Rv inactive.
For CCSc1nsc(SCC)c1C(=O)O the results were Mtb H37Rv 6%.
`CCc1cc(Br)ccc1NC(=S)Nc1ccc(OC)cc1OC` gave Mtb H37Rv inactive.
`Fc1ccccc1N1CCN(c2ncnc3c2cnn3-c2ccccc2)CC1` gave Mtb H37Rv inactive.
`COc1ccc(S(=O)(=O)N(CC(=O)Nc2cccc(N(C)S(C)(=O)=O)c2)c2cc(C)cc(C)c2)cc1OC` gave Mtb H37Rv inactive.
For Cc1ccc(S(=O)(=O)NCC23CC4CCC2(C)C4(C)CO3)cc1 (stereo not given) the results were Mtb H37Rv inactive.
Screening O=C(Nc1ccc(CN2CCOCC2)cc1)c1cccnc1 returned Mtb H37Rv inactive.
`COC(=O)c1cc(Cl)c(NC(=O)/C=C/c2ccc(OC)cc2)cc1OC` gave Mtb H37Rv inactive.
For COc1ccc(C(=O)NC(=S)Nc2ccc(C(=O)O)c(Cl)c2)cc1Br the results were Mtb H37Rv 5%.
CNC(=S)NCCCc1ccccc1 was read as Mtb H37Rv inactive.
COC(=O)c1ccc(C)c(NS(=O)(=O)c2ccc(Br)s2)c1 was read as Mtb H37Rv inactive.
`Cc1c(NC(=S)NC(=O)c2ccc(-c3ccccc3)cc2)cccc1-c1nc2ccccc2o1` gave Mtb H37Rv inactive.

From PubChem BioAssay
